Vif A3G – inhibitors of Vif binding to APOBEC3G peptide, primary screen, biochemical, TR-FRET, GST-Vif 1-94, biotin-A3G peptide, dose response retest (AID 1117319). TR-FRET GST-Vif / biotin-A3G peptide binding; higher % means a stronger effect; test concentration not given here; strong numbers were not always called active. one-dose inhibition, %; IC50 in µM for titrated hits. 0.57% of 260,000 active;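 active = above the screen mean plus three standard deviations and confirmed in dose response; inconclusive = results disagree or hit not tested in dose response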;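 note: Vif residues 1-94 fused to GST binding biotinylated APOBEC3G peptide 110-148; 0% = full assay without inhibitor and 100% = GST in place of GST-Vif; retest series ran down from 100 µM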
AF4-AF9 inh – blocks AF4 peptide binding to human AF9; AlphaScreen, biotin-AF4 peptide binding to FLAG-AF9; inhibition, % at 10 µM; P42568; 0.47% of 350,000 active; AID 651704;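 active = every replicate reaching a set inhibition limit, whatever the replicate mean, cut at about 25% in these data; inconclusive = mean inhibition reaches that limit but some replicates miss it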;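 note: 0% = plate neutral control median and 100% = total signal loss; the record names both 10 and 1 µM as test concentration; the first replicate is given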
Target sequence (P42568 whole entry, looked up): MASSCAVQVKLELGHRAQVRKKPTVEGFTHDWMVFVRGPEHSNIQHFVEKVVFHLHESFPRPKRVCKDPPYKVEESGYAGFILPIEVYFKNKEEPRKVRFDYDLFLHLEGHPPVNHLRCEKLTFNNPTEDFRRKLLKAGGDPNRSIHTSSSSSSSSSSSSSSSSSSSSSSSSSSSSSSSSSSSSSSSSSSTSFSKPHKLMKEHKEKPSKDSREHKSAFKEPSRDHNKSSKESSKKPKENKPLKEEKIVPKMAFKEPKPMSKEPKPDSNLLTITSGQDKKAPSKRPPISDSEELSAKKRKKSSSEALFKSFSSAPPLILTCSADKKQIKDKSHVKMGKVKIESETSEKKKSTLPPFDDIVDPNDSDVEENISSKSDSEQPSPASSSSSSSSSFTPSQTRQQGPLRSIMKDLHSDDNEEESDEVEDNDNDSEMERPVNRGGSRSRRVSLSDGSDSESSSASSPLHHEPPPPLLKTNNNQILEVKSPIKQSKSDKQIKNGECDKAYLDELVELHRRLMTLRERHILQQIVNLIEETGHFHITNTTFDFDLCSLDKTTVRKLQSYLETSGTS
UCH37 DUB inh – blocks the human deubiquitinase UCH37; purified proteasome/UCH37, Ub-AMC cleavage fluorescence; inhibition, % (concentration not given with the values); 0.33% of 330,000 active; AID 588478;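 active = mean of two replicates above 20%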;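 note: 0% = compound-free wells with enzyme and 100% = wells lacking proteasome; stock transfer was 100 nL into about 20 µL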
Target sequence (Q9Y5K5 whole entry, looked up): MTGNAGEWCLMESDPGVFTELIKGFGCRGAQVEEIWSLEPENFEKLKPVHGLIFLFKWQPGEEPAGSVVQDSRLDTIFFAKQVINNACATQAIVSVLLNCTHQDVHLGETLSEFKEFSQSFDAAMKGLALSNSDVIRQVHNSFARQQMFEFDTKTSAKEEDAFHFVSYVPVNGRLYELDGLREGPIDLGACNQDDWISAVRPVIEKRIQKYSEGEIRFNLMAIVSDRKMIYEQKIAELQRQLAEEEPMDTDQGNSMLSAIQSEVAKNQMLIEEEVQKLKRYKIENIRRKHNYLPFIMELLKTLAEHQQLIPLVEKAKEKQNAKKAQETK
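Material: human UCH37 enzyme supplied as purified proteasome complex / Amount: 0.15 nM proteasome as dispensed / Buffer or medium: pH 7.4 Tris-HCl (50 mM) with ovalbumin, ATP-MgCl2, DTT / Times: preincubation 30 min, reaction 25 min, room temperature / Technique: AMC fluorescence from Ub-AMC cleavage, excitation 355 nm, emission 460 nm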
Ecoli growth – E. coli growth inhibition | Escherichia coli growth, OD600, 23 h; active compounds read low | OD600 absorbance (concentration not given with the values) | 0.21% of 330,000 active;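 active = OD600 absorbance below the run mean of sample wells minus 3.6 SD, in any replicate, cut at about 0.56 in these data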;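 note: stock transfer was 300 nL into about 60 µL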
RanGTP-Impb inh – inhibitors of RanGTP-importin-beta interaction, primary screen, biochemical, FRET, CFP-Ran, YFP-importin-beta, homogeneous; cell-free CFP-Ran/YFP-importin-beta FRET ratio; inhibition, % (test concentration not listed); 1.1% of 300,000 active; AID 2216;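 active = most replicates above 15%; inconclusive = exactly half above 15%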;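 note: 0% = DMSO wells and 100% = Ran loaded with GDP instead of GTP; wells of about 40 µL received 100 nL stock; the first replicate is given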
HNF4A DNA FP – change in binding of human HNF4 alpha to DNA | 0.3% of 360,000 active | HNF4a-FITC DNA binding, fluorescence polarization, 1 h | activity change, % at 10 µM | P41235; in the data active = activity change above about 30%, passing the limit was not always enough;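 note: controls were the assay level and a saturating level of protein; the project sought stronger binding though the title names inhibitors; some compounds called inactive have numbers as strong as hits; positive values seem to mean higher polarization but the record does not say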
FGF22 binding – binders of recombinant human FGF22 by thermal shift; Q9HCT0; SYPRO orange fluorescence; percent of sucrose octasulfate shift, DMSO zero; calls only at 9.99 µM; 1.5% of 340,000 active;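 active = melting point raised past a set limit in the mean and every replicate; inconclusive = no clear call; three in four hits are not shown here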
Target sequence (Q9HCT0 whole entry, looked up): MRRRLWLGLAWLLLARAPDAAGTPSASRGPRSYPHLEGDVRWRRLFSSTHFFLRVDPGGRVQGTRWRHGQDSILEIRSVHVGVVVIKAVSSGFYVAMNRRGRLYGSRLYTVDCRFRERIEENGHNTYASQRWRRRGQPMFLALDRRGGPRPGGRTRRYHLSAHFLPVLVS
The depositor's hits bear a star; i = inactive; ? = inconclusive; / = no result given; & = joins results of further samples. An excerpt. The share of hits here may be higher or lower than overall.

SMILES | Vif A3G | AF4-AF9 inh | UCH37 DUB inh | Ecoli growth | RanGTP-Impb inh | HNF4A DNA FP | FGF22 binding
COc1ccc(/C=C/c2nc(N)nc(-c3ccccc3O)n2)cc1OC | 0% | 3.0 | 3.5 | 0.7 | 1.6 | 0.8 | i
O=C(NCc1ccco1)c1cc(-c2ccccc2)nn1CC1CC(c2cccc([N+](=O)[O-])c2)=NO1 (stereo unspecified) | / | 5.1 | 0.6 | 0.69 | / | 3.3 | i
N/C(=N\OC(=O)CC1CCCCC1)c1ccncc1 | / | / | -0.2 | 0.7 | 1.7 | 4.6 | /
Cc1ccc(CNC(=O)c2cc(=O)c3cc(C)ccc3o2)cc1 | -4% | -0.7 | 6.4 | 0.7 | 0.2 | 3.8 | i
COc1ccc(N2CCN(C(=O)CN(CCc3ccccc3)S(C)(=O)=O)CC2)cc1 | 2% | -38 | 4.7 | 0.66 | 0.8 | -5.1 | i
CC(C)N(Cc1nccn1C)C(=O)c1cc(COc2ccc(-n3cncn3)cc2)on1 | / | 0.7 | 5.4 | 0.69 | -0.8 | 1.3 | i
CCCCNC(=O)COC(=O)c1cc(C)oc1C | -9% | 0.0 | 1.5 | 0.63 | 1.5 | -0.3 | /
CN(CC(=O)Nc1ccccc1C(F)(F)F)C(=O)CSCc1ccc(Cl)c(Cl)c1 | 3% | 5.4 | 1.1 | 0.68 | 1.6 | 3.5 | i
O=C(NNc1cc(Cl)cc(Cl)c1)c1cccs1 | -4% | 1.1 | 1.5 | 0.57 | -1.8 | -1.6 | i
Cc1ccc(CSCC(=O)NCc2ccc(F)cc2)cc1 | 9% | -0.6 | -0.3 | 0.69 | 2.3 | 0.1 | i
NC(=O)C1CCN(C(=O)C2CCC(=O)N(C3CCCCCC3)C2)CC1 (stereo unspecified) | / | -1.3 | 0.9 | 0.67 | -1.8 | -0.2 | i
O=C(c1ccccc1NS(=O)(=O)c1ccc(Br)s1)N1CCCC1 | 1% | / | 1.6 | 0.75 | -2.1 | 2.4 | /
Cc1[nH]c2ccc(C(=O)NCCCN3CCN(C)CC3)cc2c1C | / | 8.8 | -1.8 | 0.65 | ? | 1.2 | i
C=CCn1c(=O)c(C(=O)Nc2ccccc2S(N)(=O)=O)c(O)c2ccccc21 | / | 1.6 | -0.2 | 0.6 | 1.1 | 2.5 | /
COc1ccc(N(CC(=O)NC2CCCC2)C(=O)Cn2nnc(-c3ccc(F)cc3)n2)cc1OC | -8%&4% | -1.6 | 1.4 | 0.61 | 2.3 | -0.2 | i
CCN(CC(=O)NCc1cccs1)C(=O)Cc1ccc(Cl)c(Cl)c1 | 4% | 1.8 | 2.7 | 0.65 | / | 4.6 | i
COc1cccc(C2/C(=C(/O)c3cnn(-c4ccccc4)c3C)C(=O)C(=O)N2CCN(C)C)c1OC (stereo unspecified) | -2% | / | 10 | 0.79 | 1.2 | -2.8 | /
C=C1CCN(C(CC(C)C)C(=O)OC)S(=O)(=O)c2ccccc21 (stereo unspecified) | / | 0.3 | 1.2 | 0.68 | 1.7 | -2.4 | i
CCn1c(SC)nnc1C1CCN(CC(=O)Nc2ccccc2N2CCOCC2)CC1 | / | -4.6 | 7.8 | 0.69 | -3.6 | -1.8 | i
CCC(C)N(C(=O)Cn1c(=O)cnc2ccccc21)C1CCS(=O)(=O)C1 (stereo unspecified) | 0% | 4.1 | -21 | 0.72 | 0.3 | 0.2 | i
COc1ccc(-c2cnnn2-c2ccc(NC(=O)c3ccc(S(=O)(=O)N4CCCCC4)cc3)cc2)cc1OC | -10% | -21 | -3.7 | 0.72 | 3.9 | -0.3 | i
COc1cccc(-c2cc(CC3(O)CCN(CCCc4ccccc4)CC3)on2)c1 | / | / | -1.4 | 0.63 | 5.1 | 0.9 | /
CCOc1nc(C)cc(COC)c1C(N)=O | 5% | -1.8 | 3.0 | 0.73 | / | 3.5 | i
CNC(=O)c1c(Cl)cnn1-c1ccccc1 | -4% | 0.2 | 5.1 | 0.7 | 6.2 | 5.1 | i
CN(C)CCCN(C(=O)c1ccc(Br)s1)c1nc2cc3c(cc2s1)OCO3 | 3% | 20 | -5.5 | 0.67 | 1.7 | 3.7 | i
New compounds follow
SMILES | Vif A3G | AF4-AF9 inh | UCH37 DUB inh | Ecoli growth | RanGTP-Impb inh | HNF4A DNA FP | FGF22 binding
CCOC(=O)c1nc(C)sc1-c1ccnn1S(=O)(=O)c1ccc(Cl)cc1Cl | 8% | 0.4 | 5.6 | 0.7 | -4.9 | 1.3 | i
COc1cc(OC)c(NS(=O)(=O)c2cc(Br)cnc2N)cc1Cl | 7% | 2.4 | 3.3 | 0.72 | 7.3 | 1.6 | i
Cc1cccc(NNC(=S)Nc2ccccc2)c1 | 3% | 8.4 | / | / | / | 0.5 | i
O=C(O)C1CCC(=O)N(C2CCCCC2)C1c1ccccc1 (stereo unspecified) | 19% | / | 4.1 | 0.74 | 1.1 | 0.2 | /
CCn1c(CSCc2ccc(C)cc2)n[nH]c1=S | / | -8.0 | 1.1 | 0.7 | -0.7 | 5.9 | i
COc1cc(CNC[C@H]2O[C@@H](n3ccc(N)nc3=O)[C@H](O)[C@@H]2O)ccc1OCc1ccc(C)cc1 | 14% | 3.5 | / | / | / | -2.7 | i
Cc1sc2ncn(CC(=O)NCCCN3CCC(C)CC3)c(=O)c2c1S(=O)(=O)N1CCC(C)CC1 | / | -0.5 | 1.7 | 0.65 | 1.0 | 5.3 | i
COc1ccc(OC)c(CCNC(=O)CC2Oc3ccc(C)cc3NC2=O)c1 (stereo unspecified) | 0% | -2.4 | -1.0 | 0.78 | / | 4.0 | i
O=C(O)CCCCn1c(SCc2cc(=O)n3cc(Cl)ccc3n2)nc2ccsc2c1=O | 24% | -5.8 | -21 | 0.74 | -1.5 | 3.4 | i
COc1cccc(N/C=C/C(=O)c2ccc(Br)cc2)c1 | 0% | / | -8.6 | 0.76 | -2.4 | 0.2 | /
COc1ccccc1C(=O)NNC(=O)c1cccc(F)c1 | -7% | / | -1.2 | 0.66 | -2.1 | 0.4 | /
COc1cccc(Nc2cc(C)nc3nc(C)nn23)c1 | -3% | -1.4 | 4.1 | 0.67 | 0.8 | 0.5 | i
CCOc1cc(S(=O)(=O)NCCCn2ccnc2)ccc1Cl | / | 1.3 | 2.7 | 0.71 | -1.4 | 3.2 | i
NC(=O)C1CCN(CC(=O)Nc2cc(Cl)ccc2Oc2ccccc2)CC1 | / | 4.9 | 0.1 | 0.65 | 5.1 | 0.6 | i
CN(C(=O)COc1cc(=O)n(C)c2ccccc12)c1cccc(Cl)c1 | -9% | -3.7 | 0.7 | 0.74 | 2.1 | 1.2 | i
CCN(CC)S(=O)(=O)c1cccc(-c2nnc(SCC(=O)c3ccc(Cl)s3)n2C)c1 | 1% | / | 0.7 | 0.72 | 7.7 | 0.9 | /
Cc1cc(C(=O)N2CCCC(Nc3ccc(C(C)C)cc3)C2)nn1C (stereo unspecified) | / | 2.0 | 1.8 | 0.67 | 0.3 | -2.6 | i
Cc1oc2cc3oc(=O)c4c(c3cc2c1C)CCC4 | 5% | / | -15 | 0.72 | 4.8 | 0.4 | /
COC(=O)c1[nH]c2ccc(Cl)cc2c1NC(=O)Oc1ccccc1 | 23% | / | -71 | 0.67 | -7.1 | 2.1 | /
CCCCCCOc1ccc(C(=O)n2cnc(N)n2)cc1 | -1% | / | 4.2 | 0.76 | -1.8 | -0.8 | /
Cc1ccc(N2C(=O)N(CC(=O)Nc3cccc(C)c3C)C(=O)C2C)cc1 (stereo unspecified) | 10% | -0.7 | 1.7 | 0.69 | -1.3 | -1.9 | i
CC(C)(C)c1ccc(CN(Cc2ccccc2)C(c2ccccn2)c2nnnn2C(C)(C)C)cc1 (stereo unspecified) | -7% | / | 0.6 | 0.74 | 1.8 | -1.9 | /
O=C(Nc1cccc(Cl)c1)Nn1cnnc1 | -5%&-16% | -20 | 3.3 | 0.67 | 6.2 | 4.2 | i
CCOC(=O)c1cccc(NC(=O)CSc2nnc(C3CCCCC3)n2CC)c1 | -8% | / | 3.6 | 0.7 | 0.5 | -1.3 | /
COc1cc(C2C3=C(CC(C)(C)CC3=O)N(C)C3=C2C(=O)CC(C)(C)C3)ccc1O | / | -2.8 | -11 | 0.63 | 11 | 0.5 | i

Single records (already shown). Screens in order: Vif A3G, AF4-AF9 inh, UCH37 DUB inh, Ecoli growth, RanGTP-Impb inh, HNF4A DNA FP, FGF22 binding
CCN(CC)S(=O)(=O)c1cccc(-c2nnc(SCC(=O)c3ccc(Cl)s3)n2C)c1 across the screens: 1%, /, 0.7, 0.72, 7.7, 0.9, /
CC(C)(C)c1ccc(CN(Cc2ccccc2)C(c2ccccn2)c2nnnn2C(C)(C)C)cc1 (stereo unspecified) across the screens: -7%, /, 0.6, 0.74, 1.8, -1.9, /
COc1cc(CNC[C@H]2O[C@@H](n3ccc(N)nc3=O)[C@H](O)[C@@H]2O)ccc1OCc1ccc(C)cc1 across the screens: 14%, 3.5, /, /, /, -2.7, i
CCOc1cc(S(=O)(=O)NCCCn2ccnc2)ccc1Cl across the screens: /, 1.3, 2.7, 0.71, -1.4, 3.2, i

The list goes on.
SMILES | Vif A3G | AF4-AF9 inh | UCH37 DUB inh | Ecoli growth | RanGTP-Impb inh | HNF4A DNA FP | FGF22 binding
CC12CN(Cc3ccccc3)CC(C)(CN(Cc3ccccc3)C1)C2=O | / | 0.9 | -0.2 | 0.7 | -2.0 | 0.8 | i
Cc1ccc(S(=O)CCNC(=O)Cc2ccc(Cl)cc2)cc1 (stereo unspecified) | -8% | -1.4 | 3.6 | 0.71 | -5.1 | 0.0 | i
CCOc1ccc(C2CC(=O)n3nc(C45CC6CC(CC(C6)C4)C5)nc3S2)cc1OC (stereo unspecified) | 0% | / | 3.6 | 0.77 | 3.1 | 3.1 | /
COc1ccc(OCCN2CCC(C(=O)NC(c3ccc(F)cc3)c3ncccc3C)CC2)cc1 (stereo unspecified) | / | 4.0 | / | / | / | -4.2 | i
O=C(COC(=O)C1CC1)NCCc1ccc(Cl)cc1 | -8% | 0.2 | 0.1 | 0.65 | / | -5.2 | i
O=C(c1cc(C(=O)N2CCOCC2)c2nc3ccccc3n2c1)c1ccccc1O | / | 0.0 | 1.2 | 0.67 | 0.4 | / | i
O=C(O)c1cc(S(=O)(=O)NC(Cc2c[nH]c3ccccc23)C(=O)O)ccc1Cl (stereo unspecified) | 6% | 0.5 | 4.2 | 0.64 | 5.7 | 6.5 | i
O=C(Nc1cccc(C(F)(F)F)c1)c1scc2c1OCCO2 | -9% | 0.5 | 1.5 | 0.72 | -2.4 | -6.2 | i
Cc1nn2c(-c3ccncc3)ccnc2c1Cl | 1% | -3.3 | -2.7 | 0.69 | -1.9 | 2.6 | i
COc1ccc(OC2(C)CCN(Cc3ccccc3OC(F)F)C2)cc1 (stereo unspecified) | / | -6.3 | / | / | / | 7.4 | i
CCOC(=O)CN(C(=O)CNC(=O)c1ccco1)C(C(=O)NC1CCCCC1)c1cccs1 (stereo unspecified) | -13% | / | -1.1 | 0.69 | 3.6 | -0.5 | /
CC1(C)Cc2nc(N3CCCC3)c(C#N)cc2CO1 | ? | -0.9 | i | 0.66 | 1.8 | 0.5 | i
O=C(c1ccc(-c2ccccc2Cl)o1)N1CCN(S(=O)(=O)c2cccs2)CC1 | -3% | -0.3 | 3.2 | 0.7 | / | 1.9 | i
O=C(COc1cccc2cccnc12)NCc1cccs1 | / | -1.6 | 4.3 | 0.64 | -1.4 | -0.2 | i
CC(OC(=O)c1nsc(Cl)c1Cl)C(=O)NC1CCCCC1 (stereo unspecified) | / | 2.2 | 4.1 | 0.63 | 5.0 | 0.9 | i
COc1ccc(-c2[nH]c(-c3ccc(C)cc3)nc2SCC(=O)Nc2nccs2)cc1 | / | 5.6 | -0.5 | 0.69 | -1.3 | 30* | /
O=C(Cc1ccccc1)NCC(=O)N/N=C/c1cccs1 | / | 0.1 | / | / | 3.5 | 0.0 | i

Screening data from PubChem.
